AmpC inh no det – Promiscuous and Specific Inhibitors of AmpC Beta-Lactamase (assay without detergent); P00811; actives 1.8% (n = 71,000); AmpC nitrocefin hydrolysis, absorbance 480 nm, no detergent; potencies from a single point are estimates; Potency, µM (titrated, usually from 28.7 µM), inactives show at the top dose activity change, negative = inhibition; active = falling curve, for most hits resting on a single point; inconclusive = weak or doubtful change; inactive = flat or rising curve; note: % of control where 0% means no effect; about half of the hits show no inhibition at the top dose; a quarter of the inactives give rising signals
Target sequence (P00811 whole entry, looked up): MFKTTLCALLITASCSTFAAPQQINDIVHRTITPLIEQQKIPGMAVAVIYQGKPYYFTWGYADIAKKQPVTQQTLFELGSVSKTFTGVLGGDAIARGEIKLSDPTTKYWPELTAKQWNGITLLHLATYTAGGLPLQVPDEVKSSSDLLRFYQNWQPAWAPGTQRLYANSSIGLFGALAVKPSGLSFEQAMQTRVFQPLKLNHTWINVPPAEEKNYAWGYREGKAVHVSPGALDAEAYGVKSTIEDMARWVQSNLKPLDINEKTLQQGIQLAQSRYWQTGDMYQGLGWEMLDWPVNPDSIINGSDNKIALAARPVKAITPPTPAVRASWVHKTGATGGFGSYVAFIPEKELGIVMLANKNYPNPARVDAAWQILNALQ
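AmpC in 20 mM phosphate buffer pH 7.0 was preincubated 15 min at room temperature with compounds. Nitrocefin (800 uM stock) was then added and hydrolysis followed at 480 nm every 20 s for 4 min.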
Numbers without * were called inactive; ? = inconclusive; & = joins results of further samples; [ ] = dose if it differs, or a comment. Potency is the fitted concentration of half-maximal effect. Only part of the results is shown (hit frequency here may not be typical).

mol | AmpC inh no det
O=C(NCc1ccccc1)N[C@@H](Cc1c[nH]c2ccccc12)C(=O)O | -7%
COc1cccc(Nc2ncc(C(=O)O)c3ccccc23)c1 | -13%
CN1CCN(CCCC(=O)c2ccc(F)cc2)CC1 | -11%
O=C(CSCc1ccco1)c1cccs1 | -20%
O=C(c1n[nH]c(=O)c2ccccc12)N1CCN(c2ccccc2)CC1 | -2%
C[C@@H]1C=C[C@](Cc2ccccc2)(C(=O)NCCN2CCOCC2)N1C(=O)c1ccccc1 | 73%
CCOc1ccccc1CNC(=O)C1CCN(c2nc3ccccc3o2)CC1 | 79%
CCO/C=C/C(O)(CNC(=O)COc1ccccc1F)C(F)(F)F (centres undefined) | 3%
Cn1c2ccccc2c2c(C(=O)N3CCN(c4ccccc4)CC3)cn(C3CCCC3)c(=O)c21 | 57%
O=C(Nc1cccc(F)c1)C1CC(=O)N(c2ccc(Br)cc2)C1 (centres undefined) | -6%
CCC(=O)n1nc(-c2ccco2)nc1N | -3%
CCCCN(C)CCNC(=O)Cn1ncc2c(=O)oc3ccc(C)cc3c21 | 1%
COC(=O)c1cc2ccsc2n1CC(=O)Nc1cc(Cl)ccc1OC | -18%
COc1cc(C(=O)Nc2cccc(-c3nc4cc(C)ccc4o3)c2C)cc(OC)c1OC | 31%
Cc1cc(C(=O)N2CC(C)CC(C)C2)n(-c2ccccc2)n1 (centres undefined) | 26%
CCc1ccc(CCC(=O)Nc2sc3c(c2C#N)CCCC3)o1 | ?
O=C(CSc1nnc(Nc2ccccc2F)s1)NCc1ccco1 | -23%
CC(C)c1cccc(C(C)C)c1O | -4%
CCOCCCNS(=O)(=O)c1ccc2c(c1)CCN2C(C)=O | 4%
O=C(Nc1ccc(OC(=O)N2CCCC2)cc1)N1CCOCC1 | 12%
C/C(N)=C(/C#N)C(=O)COC(=O)C1Cc2ccccc2CN1S(C)(=O)=O (centres undefined) | 15%
O=C(O)CNS(=O)(=O)c1cc(Cl)c(Cl)cc1Cl | -2%
Cc1cc(NC(=O)c2cc(CC(C)C)on2)no1 | 4µM*[single pt active]
CSCCC(C(=O)Nc1ccc2c(c1)OCO2)N1C(=O)c2ccccc2C1=O (centres undefined) | 2%
CCN1CCN(CCCNC(=O)c2ccc3c(c2)NC(=O)c2ccccc2S3)CC1 | 31%
Clc1ccccc1OCc1nn2c(-c3ccncc3)nnc2s1 | 18%
CCCS(=O)(=O)N1CCC(C(=O)N2CCN(Cc3ccccc3)CC2)CC1 | 28%
CC(=O)N1CCc2cc(S(=O)(=O)N3CCc4ccccc4C3)ccc21 | 16%
CCOC(=O)C1=C(CNCc2ccc(C)cc2)NC(=O)NC1c1ccc(OC)cc1 (centres undefined) | 24%
CCCCSc1nnc(CCC)n1N | -15%
CCOC(=O)c1c(C)[nH]c(C(=O)CN2C(=O)NC(C)(c3ccc(C)cc3)C2=O)c1C (centres undefined) | 37%
CC1C(=O)CCC1(C(=O)O)c1ccccc1 (centres undefined) | -14%
O=C(c1cc2c(s1)CCCC2)n1cccn1 | -16%
Cc1cccc(C)c1NC(=O)CSc1nnc(-c2ccncc2)n1Cc1ccco1 | 7%
COc1cccc(C(=O)N2CCN(Cc3ccccc3C(F)(F)F)CC2)c1 | 93%
CC(C)N=C(NC#N)SCC(=O)NC(C)(C)C | -7%
O=C1C=C(NCCN2CCOCC2)CC(c2ccccc2)C1 (centres undefined) | -7%
COc1cc(C2CC(=O)c3cnc(N4CCN(Cc5ccccc5)CC4)nc3C2)cc(OC)c1OC (centres undefined) | 133%
Cc1ccc2[nH]c(=O)c(CN(CC3CCCO3)S(=O)(=O)c3c(C)ccc4nsnc34)cc2c1 (centres undefined) | 83%
CCn1c(=O)c(C(=O)Nn2c(C)nc3ccccc3c2=O)c(O)c2ccccc21 | 41%
COC(=O)c1ccc(N=c2sc(C(=O)OC)cc(=O)n2C)cc1 | -6%
O=S(=O)(NCCOc1cccc2cccnc12)c1ccc(F)cc1 | 7%
COc1ccc(OCCC(=O)NC2=NCCS2)cc1 | -2%
COc1ccc(-n2c(Cn3c(=O)sc4ccccc43)nnc2SCC(=O)N2CCOCC2)cc1 | 126%
CN1CCN(c2nc(N3CCN(CCO)CC3)nc3ccccc23)CC1 | 12%
CCOC(=O)c1ccccc1NC(=O)c1ccccc1SC | -7%
COc1ccccc1NC(=O)N(c1c(N)n(Cc2ccccc2)c(=O)[nH]c1=O)C1CCCC1 | 17%
Cn1c(=O)c2cc(S(=O)(=O)N3CCN(c4cccc(C(F)(F)F)c4)CC3)ccc2n(C)c1=O | 53%

(further entries)
SMILES | AmpC inh no det
COc1ncnc(OC)c1NC(=O)c1ccc(F)cc1 | -13%
COc1cc(OC)cc(C(=O)Nc2ccc(S(=O)(=O)N(C)C)cc2)c1 | -7%
Cc1csc(NC(=O)c2nc3nccc(C)n3n2)n1 | -4%
CC1CCCN(c2nc3ccsc3c(=O)s2)C1 (centres undefined) | -1%
CC1CCCN(C(=O)COC(=O)c2n[nH]c3ccccc23)C1 (centres undefined) | 5%
O=C(CCSCc1ccccc1F)N1CCN(c2ccccn2)CC1 | 39%
NC(N)=NC[C@@H]1CCCCCCN1 | 7%[5.75 µM]
C[C@H](N)C(=O)O | 13%
O=C(NCc1ccc2c(c1)OCO2)c1ccc(NS(=O)(=O)c2ccc3c(c2)OCCO3)cc1 | 10µM*
CCn1c(C)nc2cc(S(=O)(=O)N3CCCCC3)ccc21 | 9%
Brc1cccc(-c2nnc(-c3ccccc3)o2)c1 | 7%
CCCCCCCCCCCCCCCC(=O)C(F)(F)F | 3%
CC(C)[C@H]1C(=O)N2CCC[C@@H]2[C@]2(O)O[C@@](NC(=O)[C@H]3C=C4c5cccc6[nH]cc(c56)C[C@H]4N(C)C3)(C(C)C)C(=O)N12 | 105%
Cc1ccc(S(=O)(=O)N2CCCC2)cc1S(=O)(=O)N1CCCC1 | 3%
Nc1nc(N)c(N=Nc2ccc([As](=O)(O)O)cc2)c(=O)[nH]1 | 1%[5.75 µM]
CC(=O)[C@H]1CC[C@@H]2[C@]1(C)CC=C1[C@]23C=C[C@]2(C[C@H](O)CC[C@@]12C)[C@H](C(=O)O)[C@@H]3C(=O)O | 1%[5.75 µM]
CC(=O)NC1CC2CCCC(C1)N2CC(=O)N1CCCc2ccccc21 (centres undefined) | 0%
COCCCNC(=O)c1ccc(CS(=O)(=O)Cc2cccc(C)c2)o1 | 7%
c1ccc(Nc2ccc(Nc3ccccc3)cc2)cc1 | -22%
CC(NC(=O)c1ccc(CS(=O)(=O)Cc2ccccc2F)o1)c1ccc2c(c1)OCCO2 (centres undefined) | 5%
COC(=O)c1ccc(CSc2ccc3nnc(-c4cccc(F)c4)n3n2)o1 | 40%
Cc1c(C(=O)O)cccc1[N+](=O)[O-] | 13%
CCN(CC)S(=O)(=O)c1cccc(C(=O)NCCCN2CCOCC2)c1 | 5%
CCOC(=O)c1snc2c(=O)[nH]cnc12 | 2%
ClC(Cl)=C(c1ccc(Cl)cc1)c1ccc(Cl)cc1 | -15%&-10%
Cc1ccc2cc(C(c3nnnn3C3CCCC3)N3CCOCC3)c(=O)[nH]c2c1C (centres undefined) | 89%
COc1ccccc1N1CCN(CCCC(=O)c2ccc(F)cc2)CC1 | 30%
Cc1[nH]c2ccccc2c1CC(=O)O | -3%
CN1CCN(S(=O)(=O)c2ccc(N(C)Cc3cccs3)nc2)CC1 | 45%
CC(c1ccc(Br)cc1)N1CC23C=CC(O2)C(C(=O)O)C3C1=O (centres undefined) | -8%
Cc1cc(NC(=O)COC(=O)CSCc2ccc(Cl)c(Cl)c2)no1 | -15%
C=CCNC(=O)c1ccccc1NS(=O)(=O)c1ccc(SC)cc1 | -8%
Nc1ccc(-n2nnnc2-c2ccco2)cc1 | 0%
CCOC(=O)c1c(C)c(C(=O)O)n(C)c1C | 6%
COc1ccc(CNC(=O)C2CC(c3ccc(OC)cc3)=NO2)cc1 (centres undefined) | -4%
Cc1ccc(C(=O)CSc2nnc(-c3cccnc3)n2N)cc1 | 1%
COC(=O)c1ccccc1S(=O)(=O)N(Cc1cc2cc3c(cc2[nH]c1=O)OCO3)C1CCCCC1 | 30%
Cc1noc(C(=O)Nc2c(C)nn(Cc3ccccc3)c2C)c1Cl | 33%
CN(C)c1ccc(-c2ccc3ncnc(-n4ccnc4)c3c2)cc1 | 78%
C=Cn1c(P(=S)(N2CCOCC2)N2CCOCC2)cc2c1CCCC2 | 89%
O=C(Cn1nc(Cc2cccnc2)c2ccccc2c1=O)N1CCN(c2ccccn2)CC1 | 30%
O=C(N[C@@H](CO)[C@@H](O)c1ccc([N+](=O)[O-])cc1)C(Cl)Cl | -1%[12.8 µM]
O=S(=O)(NCc1cccnc1)c1cccc2cccnc12 | 4%
CC(=O)Nc1cccc(N(C)S(C)(=O)=O)c1 | -4%
COc1ccc(CCNC(=O)CCn2c(SCC#N)nc3ccccc3c2=O)cc1OC | 14%
CC(Cc1cccs1)NC(=O)Nc1ccccc1 (centres undefined) | 0%
CCCCCn1c(-c2ccco2)nc2nc3ccccc3nc21 | 86%
COc1ccc2nc3c(c(-c4ccccc4)c2c1)CCC3 | 109%
Cc1ccc(Cn2c(CN3CCN(C(=O)c4ccco4)CC3)nc3c2c(=O)n(C)c(=O)n3C)cc1 | 41%
CCOC(=O)c1cccc(NC(=O)CSc2nnnn2CC)c1 | -6%
O=S(=O)(c1ccccc1)N1CCC2(CCCN(c3ccncc3)C2)CC1 | 21%
Cc1[nH]c2c(C)cccc2c(=O)c1Br | -5%
CN1CCN(CC(=O)N2c3ccccc3Sc3cc4ccccc4cc32)CC1 | 52%[5.75 µM]
Cn1c(/N=C/c2c[nH]c3ccccc23)nc2ccccc21 | 113%
Cn1c(=O)c(C(=O)Nc2cccnc2)c(O)c2ccccc21 | 3%
COc1ccc(C2C(C#N)=C(N)Oc3cc4c(cc32)OCO4)cc1 (centres undefined) | 1%
CCn1cc(C(=O)NCc2ccc3c(c2)OCO3)c(=O)c2ccc(C)nc21 | 14%
O=C(NC1CCCCC1)N1CCN(CCc2ccccc2)CC1 | 20%
N#CCCN1CCN(C(=S)c2ccc(-c3ccc(Cl)c(Cl)c3)o2)CC1 | 84%
c1ccc2c(c1)CCCN2c1nc2ccccc2n2cnnc12 | 82%

More results
SMILES | AmpC inh no det
CC(C)COC(=O)C(C#N)c1nc2ccccc2nc1N1CCN(Cc2ccccc2)CC1 (centres undefined) | 30%
O=C(NC1CCCCC1)C(c1ccco1)N(C(=O)c1csnn1)C1CCCC1 (centres undefined) | 33%
CC(NC(=O)C1CCC(=O)N1Cc1ccc(F)cc1)c1ccc2c(c1)OCCO2 (centres undefined) | 51%
O=C(NCc1ccccn1)Nc1cccc(NC(=O)NCc2ccccn2)c1 | 3%
O=C(O)CCc1nc(-c2ccccc2Cl)no1 | 4%
COc1nc(OC)nc(N2CCC(C(=O)NCc3ccco3)CC2)n1 | 3%
CCCC1(C(=O)OC)NC(c2ccc(OC)c(OC)c2)C2C(=O)N(c3ccc4c(c3)OCO4)C(=O)C21 (centres undefined) | 64%
Cc1ccc(-c2nc3cc(NC(=O)C(C)C)ccc3o2)cc1 | 9%
Cc1cccc(N2CSC3=C(C#N)C(c4ccc(C)o4)CC(=O)N3C2)c1 (centres undefined) | 16µM*
CCCCCc1c(C)nc(N2CCc3ccccc3C2)[nH]c1=O | -1%
COc1ccc(OC)c(-n2nnnc2SCC(=O)Nc2nc(C)c(C)s2)c1 | 15%
CN(C(=O)COC(=O)COc1ccccc1F)C1CCS(=O)(=O)C1 (centres undefined) | -6%
O=C(Cn1nnc(-c2ccccc2)n1)OC1CCOC1=O (centres undefined) | 0%
COc1cc(NC(=O)CSc2nc(C)cs2)cc(OC)c1 | 5%
O=C(CCCOc1ccccc1)Nc1ccncc1 | -2%
O=C(NCCc1ccncc1)C(F)(F)F | -4%
O=C(CCS(=O)(=O)c1cccc2nonc12)N1CCN(c2ccc(F)cc2)CC1 | 32%
Cc1cc(C)c(S(=O)(=O)Nc2cccc(C(F)(F)F)c2)c(C)c1 | 7%
CCOC(=O)N1CCC(NC(=O)Cn2cccc2C(=O)c2ccccc2C)CC1 | 74%
CCN(CC)CCn1nc(C)nc1-c1ccccc1O | -7%
COc1ccc(/C=N/n2c(N)nc3ccccc32)cc1OC | 81%
CCn1c(SCC(=O)Nc2ccccc2C(=O)OC)nc2c1c(=O)n(C)c(=O)n2C | -1%
C=CS(=O)(=O)c1ccc(Oc2ccc(S(=O)(=O)C=C)cc2)cc1 | 15%
Cn1c(SCc2ccon2)nc2ccccc2c1=O | 8%
CCOC(=O)c1cccc(NC(=O)C(C)N2C(=O)c3ccccc3C2=O)c1 (centres undefined) | 0%
CC(C)c1nc(-c2ccccn2)no1 | -1%
